# PINK1 expr mod: modulators of PINK1 expression. PINK1 immunofluorescence, high-content cytometry, 24 h. Potency, µM (highest dose often 76.6 µM), for the others: at the highest dose activation (PINK1 increase), usual class: activators. hit rate 0.2% among 410,000. AID 624263; active = well fitted activation curve with a large enough effect; inconclusive = small, poorly fitted or top-dose-only effect; inactive = flat fitted curve, though single readings scatter; cell line not stated here;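 further: potency means the concentration at half of the fitted maximal effect; % of control where 0% means no effect; nearly all actives have a fitted effect of over 65% in size; a mitochondrial uncoupler was the plate control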
#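 Fluorescence from anti-PINK1 antibody, together with nuclear and cell stains, was scanned on a laser-scanning cytometer. Before staining, stable-line cells were incubated 24 hours with compounds at 5 concentrations; primary antibody 12 h at 10 degrees C.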
# D2 potentiator: human D2 receptor positive allosteric modulation. P14416. DiscoveRx D2 beta-arrestin cells, luminescence, 90 min; 100% = 57 uM dopamine signal. potentiation, % (no concentration beside the values). hit rate 0.23% among 360,000; active = potentiation of 50% or more; inconclusive = 30% to 50%; inactive = 30% or less;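 further: compound concentration not given in the record; tested on top of an EC20 dose of dopamine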
# Target sequence (P14416 whole entry, looked up): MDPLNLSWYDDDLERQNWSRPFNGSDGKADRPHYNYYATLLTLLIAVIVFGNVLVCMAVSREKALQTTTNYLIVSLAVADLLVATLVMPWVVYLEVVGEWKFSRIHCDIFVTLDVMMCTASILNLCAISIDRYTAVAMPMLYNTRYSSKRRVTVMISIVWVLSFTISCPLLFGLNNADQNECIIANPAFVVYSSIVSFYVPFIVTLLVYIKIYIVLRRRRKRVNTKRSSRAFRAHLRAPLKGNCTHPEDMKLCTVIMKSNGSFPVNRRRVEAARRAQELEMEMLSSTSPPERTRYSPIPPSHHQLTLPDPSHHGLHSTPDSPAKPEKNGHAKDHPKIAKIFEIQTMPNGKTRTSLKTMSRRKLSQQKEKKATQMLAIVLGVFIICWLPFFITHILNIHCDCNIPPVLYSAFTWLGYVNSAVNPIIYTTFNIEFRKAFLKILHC
#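 PathHunter D2 cells, attached overnight at 37 deg C, received compound in DMSO plus dopamine at EC20 (50 nM final) for 90 min at 37 deg C. Beta-arrestin recruitment was read as luminescence after 1 h with detection reagent at ambient temperature.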
# Six1-Eya2 blk: inhibitors of human Six1/Eya2 interaction; Q15475+O00167; AlphaScreen GST-Six1/His-Eya2 binding, biochemical; hits give low values; control for the full effect not named in the record; activity change, % (test concentration not listed); hit rate 0.56% among 360,000; AID 651725; in the data active = activity change below about -65%; inconclusive = about -30% to -65%; inactive = above about -30%; further: on the % scale 0 is the no-effect control and ±100 the full control effect; compound concentration not given in the record
#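 GST-Six1 + His-Eya2 (5X stock: 250/500 nM); Tris pH 8.0, 300 mM NaCl, 0.05% BSA, 0.02% Tween 20; GSH donor/Ni acceptor beads; 1 h 37 °C dark; AlphaScreen readout.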
# TRPML1 agonist: agonists of human TRPML1 channel; activation, % (test concentration not listed); Q9GZU1; TRPML1-expressing cells, Ca2+ dye fluorescence, FDSS; host cell line not named in the record; reference of the full effect not given here; hit rate 0.12% among 410,000; in the data active = activation above about 50%; inconclusive = about 30% to 50%; inactive = below about 30%; further: 0% is about no effect; the text of the record puts the active cut at 80%
# Target sequence (Q9GZU1 whole entry, looked up): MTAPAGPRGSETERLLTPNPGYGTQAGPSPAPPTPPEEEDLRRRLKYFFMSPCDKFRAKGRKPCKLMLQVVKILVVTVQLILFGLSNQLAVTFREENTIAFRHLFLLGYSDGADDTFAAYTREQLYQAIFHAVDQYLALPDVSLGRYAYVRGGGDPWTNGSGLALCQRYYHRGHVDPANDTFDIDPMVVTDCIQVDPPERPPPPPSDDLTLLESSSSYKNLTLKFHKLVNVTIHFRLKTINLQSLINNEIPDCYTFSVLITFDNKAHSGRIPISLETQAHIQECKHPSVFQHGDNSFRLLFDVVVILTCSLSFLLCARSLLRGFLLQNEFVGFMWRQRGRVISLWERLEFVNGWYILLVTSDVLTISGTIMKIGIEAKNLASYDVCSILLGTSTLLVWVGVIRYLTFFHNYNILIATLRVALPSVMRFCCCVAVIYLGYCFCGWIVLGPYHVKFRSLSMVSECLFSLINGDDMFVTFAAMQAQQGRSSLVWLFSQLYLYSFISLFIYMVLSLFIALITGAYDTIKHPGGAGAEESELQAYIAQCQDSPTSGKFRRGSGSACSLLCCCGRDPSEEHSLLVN
#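 TRPML1-DL cells, Tet-induced overnight (~16 h, 37 degrees C), loaded 45-90 min at room temperature with Ca8 no-wash calcium dye plus quencher. FDSS fluorescence: 10 s baseline, compound pin-transfer, 110 s agonist read, then EC80 54-4 (4uM final) and 110 s antagonist read.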
# D2 agonist: human D2 receptor agonism in beta-arrestin assay. hit rate 0.084% among 360,000. DiscoveRx PathHunter D2 beta-arrestin, luminescence, 90 min; 100% = 57 uM dopamine signal. activation, % (concentration not given with the values); in the data active = activation above about 40%; inconclusive = about 15% to 40%; inactive = below about 15%; further: compound concentration not given in the record; the text of the record calls up to 30% inactive
#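 Agonist mode: compounds alone added to overnight-plated D2 PathHunter cells for 90 min at 37 C, with 57 uM final dopamine (EC100) defining full response. Beta-arrestin recruitment detected by chemiluminescent reagent, read after 1 h at ambient temperature.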
# CtBP-E1A blk: blocks the CtBP interaction with E1A; AlphaScreen GST-E1A/His-CtBP binding, 1536-well; hits give low values; control for the full effect not named in the record; activity change, % (no concentration beside the values); hit rate 0.49% among 340,000; AID 651724; in the data active means activity change below about -65%; inconclusive means about -30% to -65%; inactive means above about -30%; further: on the % scale 0 is the no-effect control and ±100 the full control effect; compound concentration not given in the record
#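 Homogeneous bead-based format: GST-tagged E1A captured on glutathione donor beads, His-tagged CtBP on nickel acceptor beads; compounds precede bead addition by 2 h at 37 °C.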
# An asterisk follows results filed as active; u = inconclusive; x = no result given; [ ] = remark or other dose.
SMILES,PINK1 expr mod,D2 potentiator,Six1-Eya2 blk,TRPML1 agonist,D2 agonist,CtBP-E1A blk
COc1ccccc1NC(=O)C1CCN(C(=O)C2CC(=O)N(c3ccc(C)cc3)C2)CC1 (stereo unspecified),1.0%,-8,-3,0.0,-3.6,2
O=C(Nc1ccc(C(=O)N2CCCC2)cc1)C1CCCCC1,0.9%,x,3,-0.2,-1.1,7
Cc1ccc(C)c(OCCCC(C)(C)C(=O)O)c1,-0.6%,-5,-21,0.2,-6.7,0
CCN(CC)c1ccc(NC(=O)Cn2c(C(C)NC(=O)c3ccc(C)cc3)nc3ccccc32)cc1 (stereo unspecified),1.3%,-5,-5,1.2,0.5,0
COc1ccc(OCCCC(=O)Nc2ccc(S(=O)(=O)N3CCOCC3)cc2)cc1,0.0%,-9,0,-1.5,-2.8,x
Cc1ccc(-n2c(SCc3cc(=O)n4ccsc4n3)nnc2-c2cccnc2)c(C)c1,3.2%[38.3 µM],-5,-3,0.1,1.1,7
CSCc1ccc(C(=O)N2CCC(N3CCC(C(=O)NC(C)C)CC3)CC2)o1,-0.5%,-3,5,0.1,0.7,-3
Cc1ccc(-n2c(-c3ccc(Cl)cc3)n[nH]c2=S)c(C)c1,2.4%,-5,-2,0.0,-8.8,2
CCOC(=O)C(CCSC)NC(=O)CN (stereo unspecified),1.3%,0,6,-0.3,-0.7,0
O=S(=O)(NCCc1ccccn1)c1cc(Cl)cc(Cl)c1O,0.8%,1,-5,-0.8,3.3,9
Cc1ccc(NC(=O)COc2ccccc2C(=O)NCCc2ccccc2)cc1,3.8%,-12,2,1.0,-4.4,x
COC(=O)C1=C(C)N(CCc2c[nH]c3ccccc23)C(=O)C1,3.4%,-2,-1,-0.8,-11,4
O=C(/C=C/c1ccccc1[N+](=O)[O-])NCc1ccc(Cl)cc1,-0.8%,-15,-6,-0.4,-7.2,-2
C=CCn1c(SCc2c(C)noc2C)nc2sc3c(c2c1=O)CCC(C)C3 (stereo unspecified),4.3%,-26,4,0.7,-2.6,4
CCN(CC)S(=O)(=O)c1cccc(C(=O)NCC2CCCO2)c1 (stereo unspecified),-1.1%[38.3 µM],-6,9,-0.6,0.3,11
O=C(CSc1nc(NS(=O)(=O)c2ccccc2)cc(=O)[nH]1)Nc1cccc(C(F)(F)F)c1,-0.7%,-17,u,0.5,-2.3,-12
CC(C)(C)C(=O)Cn1ncc(Cl)c(Cl)c1=O,0.3%,-13,7,0.4,-2.2,x
Cc1cccc(S(=O)(=O)NC(=O)C2(C)CCN2C(=O)c2ccccc2CCc2ccccc2)c1 (stereo unspecified),-0.4%,8,0,-0.4,1.4,4
CC(C)(C)OC(=O)NCCCCCNC(=O)c1nc[nH]c1C(=O)NCc1ccc(CNC(=O)OC(C)(C)C)cc1,11%,7,-10,1.9,5.7,-5
COc1ccc(CN2C(=O)c3cccnc3C2O)cc1 (stereo unspecified),-2.9%,-10,14,-0.5,-0.7,10
CCN(CC)S(=O)(=O)c1ccc(OC)c(NC(=O)C2CC(=O)N(c3ccc4c(c3)OCCO4)C2)c1 (stereo unspecified),2.2%,2,0,1.7,3.2,-11
COc1ccc(CCC(=O)N2CCN(C(=O)c3ccccc3)CC2)cc1,-0.4%,-6,5,-0.9,1.9,10
Cc1cc(C)nc(SCC(=O)N/N=C/c2ccc3c(c2)OCO3)n1,u,-8,-1,1.3,-4.5,-2
COc1ccc(N(CC(=O)N2CCN(c3ccccc3)CC2)S(=O)(=O)c2c(C)noc2C)cc1,0.4%,-3,-10,-0.8,-2.3,-5
O=c1c2ccc([N+](=O)[O-])cc2ncn1CCOc1cccc(Br)c1,2.3%,u,-15,-0.5,2.9,-7

# Profiles from above. Screens in order: PINK1 expr mod	D2 potentiator	Six1-Eya2 blk	TRPML1 agonist	D2 agonist	CtBP-E1A blk
# COc1ccc(CCC(=O)N2CCN(C(=O)c3ccccc3)CC2)cc1 as listed: -0.4%	-6	5	-0.9	1.9	10
# Cc1ccc(-n2c(SCc3cc(=O)n4ccsc4n3)nnc2-c2cccnc2)c(C)c1 as listed: 3.2%[38.3 µM]	-5	-3	0.1	1.1	7
# O=S(=O)(NCCc1ccccn1)c1cc(Cl)cc(Cl)c1O as listed: 0.8%	1	-5	-0.8	3.3	9
# Cc1ccc(NC(=O)COc2ccccc2C(=O)NCCc2ccccc2)cc1 as listed: 3.8%	-12	2	1.0	-4.4	x
# COc1ccc(OCCCC(=O)Nc2ccc(S(=O)(=O)N3CCOCC3)cc2)cc1 as listed: 0.0%	-9	0	-1.5	-2.8	x

# Following part.
SMILES,PINK1 expr mod,D2 potentiator,Six1-Eya2 blk,TRPML1 agonist,D2 agonist,CtBP-E1A blk
CN(CC(=O)Nc1ccccc1F)S(=O)(=O)c1ccc2c(c1)n(C)c(=O)c(=O)n2C,0.3%,-5,0,1.0,-2.5,x
Cc1nn(Cc2ccccc2)c(C)c1NC(=O)c1cc(-c2ccco2)on1,u,-4,-4,0.4,0.9,2
Cn1nnnc1SCC(=O)Nc1ccc(Oc2ccc(Cl)cc2)cc1,x,-14,7,0.8,0.0,7
Nc1nc(NC(=O)c2cccc(S(=O)(=O)N3CCCCCC3)c2)nc(-c2ccccc2)n1,7.3%,-4,0,0.3,-1.5,4
COc1ccc(-n2c(C)c(C(C)=O)c3cc(OC(C)=O)ccc32)cc1,5.9%,7,0,0.3,1.3,x
CCCCNC(=S)Nc1ccc(F)cc1,-1.3%,-1,9,-0.1,0.8,-1
Cc1ccc([C@@H]2C[C@H]3[C@@H](CN2S(=O)(=O)c2ccc(Cl)cc2)C(=O)C[C@@H](c2cccc4ccccc24)N3S(=O)(=O)c2ccc(C)cc2)cc1,1.9%,1,-4,1.2,-9.9,-13
COc1ccc(N2CCN(C3CCCN(Cc4ccc(F)c(F)c4)C3)CC2)cc1 (stereo unspecified),1.2%,-4,-24,0.3,-2.7,-21
COc1cc([N+](=O)[O-])ccc1NC(=O)/C=C\C(=O)O,1.3%,-6,8,0.4,-7.0,x
Cc1nc2ccc(NC(=O)NC(=O)c3c(Cl)cccc3Cl)cc2o1,3.9%,-1,-4,2.2,2.7,5
C/C(=N\Nc1ccccc1)c1cc2ccccc2oc1=O,-1.4%,-3,-1,3.0,-1.6,-3
CC(C)(C)OC(=O)C[C@@H]1C/C=C\C[C@@H](CC(=O)N(CCO)Cc2ccccc2)C(=O)N[C@H](C(C)(C)C)COC1=O,0.3%,-1,-3,-0.6,-2.0,1
CCN(CC)C(=O)C1=C(C)N(Cc2ccc(C(C)(C)C)cc2)C(=O)C(CC(=O)NCCCCc2ccccc2)C1 (stereo unspecified),4.1%,-2,-3,1.2,-8.0,4
COc1ccc(S(=O)(=O)N2CCOC2CNC(=O)C(=O)NCCCn2ccnc2)cc1OC (stereo unspecified),1.0%,-1,-10,-0.6,-0.1,1
COC(=O)C1(C)NC(c2cccc(C)c2)C2C(=O)N(c3ccccc3)C(=O)C21 (stereo unspecified),0.1%,-7,9,-0.5,1.7,-7
CCn1c(SCC(=O)NC2CCCCC2)nnc1C(C)NC(=O)c1ccccc1F (stereo unspecified),-2.4%,-1,4,1.1,2.8,-20
O=S(=O)(Cc1ccc(Cl)cc1)c1ncc(CO)n1Cc1ccccc1,-0.3%,-4,9,0.0,6.4,5
CCn1c(=O)n(CC)c2cc(S(=O)(=O)N3CCc4ccccc43)ccc21,5.2%[38.3 µM],-10,-14,1.2,0.9,-5
CCCCN(CC)C(=O)Cn1nc(Cc2ccncc2)c2ccccc2c1=O,1.1%,7,1,x,0.3,4
O=C(N/N=C/c1ccc(N2CCOCC2)s1)c1ccc(O)cc1,4.0%,2,-23,-1.0,-0.9,-5
Cc1ccc(-c2nn(-c3ccccc3)cc2C2CC(c3cccs3)=NN2C(=O)CCCC(=O)O)cc1 (stereo unspecified),-3.0%,-13,15,2.3,-4.2,0
O=C(Nc1cccc(-n2cccn2)c1)C1CCCN(Cc2ccc(C#CCCO)cc2)C1 (stereo unspecified),1.3%,-40,-6,-0.4,-3.7,-6
CC(NC(=O)COC(=O)c1ccc(N2CCCC2=O)cc1)c1ccc(F)cc1 (stereo unspecified),1.6%,5,-2,-0.9,-2.3,x
O=C(Nc1ccc(OC(F)(F)F)cc1)N1CCN(c2ccnc3cc(Cl)ccc23)CC1,u,-7,9,-0.1,-0.9,-1
Cc1cc(C(=O)N/N=C/c2c(CO)cnc(C)c2O)c2ccccc2n1,-0.4%,-10,-92*,0.1,-1.3,-99*

# Some values from the list:
# Result for `O=C(Nc1cccc(-n2cccn2)c1)C1CCCN(Cc2ccc(C#CCCO)cc2)C1` (stereo unspecified) in D2 potentiator: -40
# Result for `Cn1nnnc1SCC(=O)Nc1ccc(Oc2ccc(Cl)cc2)cc1` in D2 agonist: 0.0

# Later entries.
SMILES,PINK1 expr mod,D2 potentiator,Six1-Eya2 blk,TRPML1 agonist,D2 agonist,CtBP-E1A blk
COc1ccc(NC2CCCN(C(=O)c3cccc(N(C)C)c3)C2)cc1 (stereo unspecified),-1.1%,-11,-6,-0.2,-0.5,x
O=C(CCC(=O)Nc1ccccc1Cl)NNC(=O)c1ccccc1[N+](=O)[O-],-0.6%,-1,2,0.6,-2.8,x
Cc1ccc(C(C)(C)C)cc1S(=O)(=O)N1CC(=O)Nc2ccccc21,2.4%,1,-6,3.9,1.9,-28
O=C(NC(=S)Nc1cccnc1)c1cccc(Br)c1,-0.6%,-5,9,0.7,-5.3,-3
CC(C)(CN1CCc2ccccc2C1)NS(=O)(=O)c1ccccc1,1.8%,-6,4,1.5,-0.8,9
CC(=O)Nc1ccc(S(=O)(=O)N(C)CC(=O)OCC(=O)N(C)C2CCS(=O)(=O)C2)cc1 (stereo unspecified),-0.8%,-34,18,0.2,-5.7,4
COc1cc(Cl)c(CNC[C@H]2O[C@@H](n3cnc4c(N)ncnc43)[C@H](O)[C@@H]2O)c(Cl)c1O,-0.9%,x,-1,0.0,-3.6,-10
Cc1ccc(C)c(N2N=C(C(=O)Nc3nccs3)CCC2=O)c1,0.3%,-3,0,0.5,-2.8,3
CC1CC(C)(C)NC(=S)N1CC(=O)NCc1ccccc1Cl (stereo unspecified),1.0%,-9,19,-0.7,-6.4,0
O=C(COc1ccc(Cl)cc1)Nc1ccc(C(=O)O)cc1NC(=O)COc1ccc(Cl)cc1,1.0%,-6,2,1.7,5.7,0
CN(C)c1ccc(C(=O)NCc2ccc3c(c2)OCO3)cc1,0.2%,-1,9,-0.4,-2.1,-10
CC(=O)N1CCN(S(=O)(=O)c2ccc(C)cc2)C1C(C)C (stereo unspecified),1.3%,-6,-1,-1.2,-0.7,5
CN1CCN(C(=O)Nc2cccc3ccccc23)CC1,6.0%[38.3 µM],-9,-1,0.3,-2.2,-7
C=CCN(c1ccc(C(=O)NC(C)C)cc1)S(C)(=O)=O,5.7%[38.3 µM],3,1,0.3,-0.7,8
OC(c1ccc(F)c(F)c1)c1nc(-c2cncnc2)cs1 (stereo unspecified),-0.3%,-2,-4,-0.6,-0.9,2
CCS(=O)(=O)Nc1ccc(C2=NN(S(C)(=O)=O)C(c3cccs3)C2)cc1 (stereo unspecified),-1.0%,-9,-18,-0.4,-0.8,12
CCN1CCN(c2ccc(S(=O)(=O)N3CCOCC3)cc2NC(=O)c2ccccc2SC)CC1,-0.6%,-15,0,-0.3,-4.9,1
CCCCc1nc(NCCO)c(C#N)c2c1CCCC2,0.0%,-12,-3,1.7,-4.8,-8

# Compound activity (PubChem)
